Compound activity as filed in PubChem BioAssay.
UUG fidelity: modulators of yeast start codon fidelity, primary screen, whole organism, S. cerevisiae, single point, plate reader. S. cerevisiae UUG-firefly luciferase reporter, luminescence/redox ratio. activity score, % at 18.7 µM. 0.13% of 350,000 active;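 active = replicate mean at a twofold rise or more, about +100% in these data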;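 note: firefly luciferase made from a UUG start codon reports start codon fidelity; reporter light over untreated wells divided by growth signal over untreated wells; some hits fall short of that in this replicate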
CSC inhib: cancer stem cell viability inhibitors, primary screen, luminescence. 1.1% of 300,000 active. inhibition, % at 7.5 µM. cancer stem cell-like cells viability;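 active = mean at 75% or more and at least half the replicates too; inconclusive = mean and replicates disagree; tested in HMLE shEcad cells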;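 note: 0% = median of negative and 100% = median of positive control wells; the first replicate is given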
PABP FP inh: PABP poly(A) RNA binding inhibitors, primary screen, biochemical, fluorescence polarization, uHTS. Polyadenylate-binding protein 1 (Homo sapiens), P11940. inhibition, % at 35 µM. 1% of 290,000 active;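 active = 50% or more with normal probe brightness, or confirmed in later tests; inconclusive = above 50% with abnormal brightness, or retests that disagree; inactive = below 50% or failed in later tests; about a fifth of its hits are not listed in these tables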;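 note: calls also rest on retests at 20 µM and on dose response follow-up; controls were probe without protein and protein plus probe with vehicle; some compounds called inactive have numbers as strong as hits; many hits fall short of the cut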
Rce1 inhib: yeast Rce1p protease inhibitors, primary screen, biochemical, fluorescence, cell-free homogeneous; yeast membranes, quenched prenylated peptide cleavage fluorescence; calls only; 0.27% of 290,000 active; AID 2563, 2010;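 active = fall in fluorescence gain of 50% or more versus controls, with final raw signal at or below 3038400; inconclusive = same 50% fall but final raw signal above 3038400; inactive = fall in fluorescence gain under 50%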;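 note: plate controls were neutral control wells for no effect and wells lacking membranes for full effect; tested at 10 µM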
Target sequence (Q03530 whole entry, looked up): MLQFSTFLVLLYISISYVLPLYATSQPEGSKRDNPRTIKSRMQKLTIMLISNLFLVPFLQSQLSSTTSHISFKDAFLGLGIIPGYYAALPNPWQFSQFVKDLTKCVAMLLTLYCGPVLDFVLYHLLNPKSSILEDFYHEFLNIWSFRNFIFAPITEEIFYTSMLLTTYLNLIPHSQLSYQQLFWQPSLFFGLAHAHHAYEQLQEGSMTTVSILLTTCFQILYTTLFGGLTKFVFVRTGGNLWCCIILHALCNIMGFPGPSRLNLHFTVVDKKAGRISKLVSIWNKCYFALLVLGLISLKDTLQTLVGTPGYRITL
MT1-MMP act inh: blockers of MT1-MMP proenzyme processing, primary screen, HT1080 RFP-PRO-GFP cells, GFP/RFP fluorescence; Matrix metalloproteinase-14 (Homo sapiens), P50281; GFP/RFP ratio fluorescence, overnight; percent of plate control window, DMSO zero; GFP/RFP ratio change, % at 20 µM; 0.061% of 360,000 active; AID 651647, 2012;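 active = GFP/RFP ratio change of at least 30% with cell ATP level not reduced by more than half and red fluorescence within 50% of control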; note: strong numbers were not always called active
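Material: RFP-PRO-GFP reporter HT1080 cells. Dosing: single-point 20 µM compound, 1% DMSO. Controls: DMSO and RFP-L50D-GFP cell wells. Timing: cells overnight before dosing, compound overnight, 37 °C, 5% CO2. Measure: GFP/RFP fluorescence ratio.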
Env fusion inh: inhibitors of HIV-1 Env-driven cell-cell fusion, primary screen, HeLa-JRFL effector, CEM21 target cells, luciferase. inhibition, % at 12.3 µM. 1.1% of 360,000 active. AID 651610, 2012;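 active = mean replicate inhibition score of at least 50 and every replicate individually at or above 50; inconclusive = only one of the two criteria met; inactive = mean below 50 and not all replicates reaching 50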;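 note: 0% = plate neutral controls and 100% = maraviroc near 300 nM; one replicate is shown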
eIF4H inh: human eIF4H binding inhibitors, primary screen, translation initiation inhibitor project, biochemical, uHTS, fluorescence polarization | eIF4H fluorescence polarization binding assay | inhibition, % at 35 µM | 0.94% of 290,000 active;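 active = 50% or more with normal probe brightness, or confirmed in later tests; inconclusive = above 50% with abnormal brightness, or retests that disagree; inactive = below 50% or failed in later tests; about a fifth of its hits are not listed in these tables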;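 note: calls also rest on retests at 20 µM and on dose response follow-up; 0% = protein and probe with vehicle and 100% = probe without protein; strong numbers were not always called active; many hits fall short of the cut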
eIF4H inh retest: recorded beside eIF4H inh, whose call it bears; inhibition, %; compound at 20 µM; confirmation average;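 mean of two retest wells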
PABP FP inh retest: also measured in PABP FP inh; calls as there; inhibition, %; compound at 20 µM; confirmation repeats;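 mean of two retest wells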
MT1-MMP act inh RFP: recorded beside MT1-MMP act inh, whose call it bears; RFP signal change, %; measured here: RFP expression control read;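 0 = vehicle wells; hits needed this value within 50% of zero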
* = called active by the depositor; i = inactive; ? = inconclusive; . = no result given; & = joins results of further samples; [ ] = dose if it differs, or a comment.

SMILES	UUG fidelity	CSC inhib	PABP FP inh	Rce1 inhib	MT1-MMP act inh	MT1-MMP act inh RFP	Env fusion inh	eIF4H inh	others
Cc1cc(C)cc(OCC(=O)Nc2ccncc2)c1	-3	-13	-3	i	-6	-19	6	-6
CCOc1ccc(CCNC(=O)C(C)n2nc(C)c3c(C)n(-c4ccccc4)nc3c2=O)cc1 (stereo not given)	3	-17	0	i	0	-3	20	-3
COC(=O)CNC(=O)c1cc(-c2ccncc2)nc2c(C)c(Cl)ccc12	-30	-5	-3	i	-8	-3	-9	-5
C[C@@H]1CN([C@H](C)CO)C(=O)CCCn2nncc2CO[C@H]1CN(C)S(=O)(=O)c1ccc(Oc2ccccc2)cc1	-6&12	.	.	.	-2	-2	-9	.
O=C1C(C2=C(O)c3ccccc3C2=O)=Nc2ccccc21	-11	4	16	i	-172	24	-24	4
O=C(NCCCN1CCCC1=O)C(=O)NCC1OCCCN1S(=O)(=O)c1cc(F)ccc1F (stereo not given)	2	-6	-1	i	-3	0	-7	6
Cc1ccc(C(=O)CSc2nc3ccccc3c(=O)n2-c2ccccc2)s1	-18	25	-2	i	2	4	5	-8
CC(C)N1C(=O)C(=O)N(CC(=O)N2c3ccccc3CC2C)C1=O (stereo not given)	-15	.	.	.	-2	3	13	.
Cc1ccc2nc(SCC(=O)c3ccc(Cl)cc3)nc(=O)n2c1	8	-5	.	i	4	0	-6	.
CC(=O)N1N=C(c2ccc(C)cc2)CC1c1ccco1 (stereo not given)	52	-10	11	i	1	-1	-40	0
CCN(CC)S(=O)(=O)c1cccc(C(=O)NCCc2ccccc2)c1	-12	13	.	i	1	-9	.	.
O=C(c1cc(C2CC2)nn1-c1ccccc1)N1CCN(c2ccccn2)CC1	-2	.	.	.	-2	-2	-14	.
CCC(C)NC(=O)c1[nH]c(C)c(C(=O)OC)c1C (stereo not given)	.	2	21	i	3	4	-1	3
COc1ccc(C(=O)N2CCN(c3nc4cc(C)ccc4cc3C#N)CC2)c(OC)c1	-4	-3	5	.	-5	-7	21	-7
CCOC(=O)c1ccc(-c2ccc(-c3cc(=O)oc4cc(OC)c(OC)c(OC)c34)cc2)cc1	2	.	.	.	-2	-6	0	.
CCc1ccccc1N1C(=O)C(Cl)=C(N2CCOCC2)C1=O	-11	-7	-3	i	-4	0	-2	-4
C[C@@H]1CN([C@H](C)CO)C(=O)CCCn2cc(nn2)CO[C@H]1CN(C)C(=O)Nc1ccc2c(c1)OCCO2	-20&-11	.	.	.	2	4	-14	.
N/C(=N\OCc1ccccc1)c1nonc1N	.	-5	27	i	4	-2	-11	10
O=C(Nc1ccccn1)c1nc(-c2ccccc2)n(-c2ccccc2)n1	.	-38	-1	.	-1	0	-55	-1
CC(Oc1ccc(C#N)cc1)C(=O)N1CC=C(c2ccccc2)CC1 (stereo not given)	-12	28	.	.	5	-3	-69	.
O=C(CN1CCOCC1)N/N=C/c1cccc2ccccc12	-2	-8	3	i	-3	-5	-10	-7
O=C(Nc1ccccc1C(=O)Nc1cccnc1)c1ccccc1	-16	1	17	i	-1	-2	-9	0
Cc1ccc(C)c(COC(=O)CCN=C2NS(=O)(=O)c3ccccc32)c1	1	0	.	i	-2	-1	19	.
COc1cc(CCC(=O)N2CCN(c3ncccn3)CC2)cc(OC)c1OC	4	-2	-2	i	2	4	5	-6
CC1(C)C2CCC1(C)C(OC(=O)c1ccccc1C(=O)O)C2 (stereo not given)	-4	-23	-1	i	4	5	1	-6

The last 3 records of the section before are carried over, then new ones follow:
SMILES	UUG fidelity	CSC inhib	PABP FP inh	Rce1 inhib	MT1-MMP act inh	MT1-MMP act inh RFP	Env fusion inh	eIF4H inh	others
Cc1ccc(C)c(COC(=O)CCN=C2NS(=O)(=O)c3ccccc32)c1	1	0	.	i	-2	-1	19	.
COc1cc(CCC(=O)N2CCN(c3ncccn3)CC2)cc(OC)c1OC	4	-2	-2	i	2	4	5	-6
CC1(C)C2CCC1(C)C(OC(=O)c1ccccc1C(=O)O)C2 (stereo not given)	-4	-23	-1	i	4	5	1	-6
CCCNC(=O)c1ccc(COc2ccc(CCC)cc2OC)o1	-12	.	1	i	-1	-13	24	-1
C=CCOC(=O)C1=C(C)OC(N)=C(C#N)C1c1ccc(OC)c(CSc2ccccn2)c1 (stereo not given)	-12	-4	1	i	3	2	-1	7
Cc1ccc(CN2CCN(Cc3c(C)nn(-c4ccc(F)cc4)c3C)CC2CCO)o1 (stereo not given)	-12	.	5	i	0	0	1	10
COc1ccc(C(=O)Nc2cccc(C(=O)N3CCCCC3)c2)cc1	-13	6	1	i	-1	1	-5	-5
O=C(COc1ccc(S(=O)(=O)N2CCOCC2)cc1)NCCc1ccc(Cl)cc1	-4	.	.	.	3	-2	14	.
O=C(NCCN1C(=O)S/C(=C\c2cccs2)C1=O)[C@H](Cc1ccccc1)N1C(=O)c2ccccc2C1=O	.	-9	-4	i	.	.	13	-3
COc1ccc(C(=O)/C=C\c2ccc(NC(=O)c3cccs3)cc2)cc1	-26	16	-14	i	-4	-9	7	-16
Cc1ccc(S(=O)(=O)N2CCCCC2)cc1NC(=O)c1cnccn1	-3	.	.	.	2	0	-25	.
C=CCC[C@@H](Cc1ccc(F)cc1)C(=O)OC[C@@H](Cc1c[nH]c2ccccc12)NC(=O)[C@@H](CC=C)CC(=O)N[C@H](CO)Cc1ccccc1	5	-13	.	.	9	-2	-54	.
COc1ccc(/C=C(/NC(=O)c2ccccc2)c2nc3ccc(Cl)cc3[nH]2)cc1OC	.	8	-9	i	1	-8	8	-2
CC(Oc1ccccc1F)C(=O)NNC(=O)c1ccc(F)c(S(=O)(=O)N2CCOCC2)c1 (stereo not given)	-7	6	3	i	-2	-2	-3	-4
CCCc1nnc(NC(=O)CCC(=O)N2CCN(S(=O)(=O)c3ccc(C)cc3)CC2)s1	.	-13	-5	i	-2	1	6	-12
Cc1cc(=O)oc2cc(OCCSc3nnc(-c4ccccc4)o3)ccc12	-14	-9	-3	i	-4	-1	-8	-1
COc1ccc(CC(=O)N(C)CC(=O)Nc2ccccc2SC)cc1	3	-18	10	i	2	3	5	-6
O/N=C1/CC/C(=N\O)c2nn(-c3ccccc3)nc21	-18	3	-2	.	-3	-2	-91	-14
Cc1cccc(NC(=O)c2ccc(-c3ccccc3[N+](=O)[O-])o2)c1	-21	-6	8	i	2	-1	-5	-2
O=C(O)c1ccc(CNCc2cccc(Oc3ccccc3)c2)cc1	-10	-3	-8	i	0	0	4	-3
COc1ccc(CNC(=O)c2cc(C3CC3)nc3c2cnn3C(C)C)cc1	-3	.	.	.	-2	-3	3	.
CCn1cc(C(=O)OC)c(=O)c2ccc(C)nc21	-11	26	-25	.	7	4	-7	3
Cn1cc(/C=C(\C#N)C(=O)Nc2ncc(Cc3cccc(Cl)c3)s2)c2ccccc21	.	15	4	i	.	.	.	?
CC1CC(=O)N(c2ccc(NCCc3ccc(O)cc3)c([N+](=O)[O-])c2)C1=O (stereo not given)	11	-6	107	i	11	-10	3	-2	eIF4H inh retest=-4;PABP FP inh retest=9
Cc1ccc(C(=O)NCCSc2ccc(Cl)cc2)cc1S(=O)(=O)Nc1ccccc1	-10	30	2	i	2	-13	.	-2
CN1CCc2c(C#N)c(N3CCCCC3)nc(NCc3ccccc3)c2C1	-12	-3	53*	.	-21	3	-26	74*
COc1ccc(N2C(=O)CC(N3CCN(S(=O)(=O)c4c(F)cccc4F)CC3)C2=O)cc1OC (stereo not given)	.	-19	10	i	-1	0	-90	-4
CCOc1cc(C)c(S(=O)(=O)Nc2ccc(Cl)cn2)cc1C	-14	4	0	i	-3	-3	0	1
SMILES	UUG fidelity	CSC inhib	PABP FP inh	Rce1 inhib	MT1-MMP act inh	MT1-MMP act inh RFP	Env fusion inh	eIF4H inh	others
CN(C)/C=N/C1=C(C#N)C(c2ccc(Br)cc2)c2ccc3ccccc3c2O1 (stereo not given)	-10	.	2	i	-6	-5	59*	-10
CC(C)Nc1nc(-c2cccnc2)nc(-c2ccccc2)c1C#N	11	-8	10	i	-4	-1	9	-6
COc1ccc(-c2c(NC(=O)CC(C)C)n(C)c3ccccc3c2=O)cc1OC	-25	5	-3	i	-2	0	-3	9
Cc1ccc(C(=O)C2=C(O)C(=O)N(c3ncccn3)C2c2ccc(F)cc2)o1 (stereo not given)	-10	1	27	i	-3	1	-4	15
COc1ccc(/C=N/NC(=O)c2cccc(NC(=O)c3ccccc3Cl)c2)c(OC)c1	.	-5	9	i	2	0	2	2
O=C(COC(=O)c1cccs1)Nc1ccccc1C(F)(F)F	.	1	0	i	0	1	13	-7
C[C@@H]1CN([C@H](C)CO)C(=O)c2cc(C#Cc3ccccc3F)cnc2O[C@@H]1CN(C)S(=O)(=O)c1ccccc1F	-12&-13&-7	.	.	.	1	2	41&52[16.7 µM]	.
CCCCNC(=O)Cn1cnc2sc(C)c(S(=O)(=O)N3CCN(c4ncccn4)CC3)c2c1=O	.	-7	-15	.	-3	1	6	1
O=C(c1ccccc1)N1CCn2c1nc1ccccc12	.	-7	7	i	-1	6	1	-1
CNC(=O)c1c2c(nc3ccc(Br)cc13)CCCC2	-10	36	-1	i	-2	1	17	5
COc1ccccc1CNC(=S)Nc1ccc2nc(N3CCN(C)CC3)cc(C)c2c1	-18	80*	4	i	-4	-2	2	4
COc1ccc(N(CC(=O)Nc2ccccc2F)S(=O)(=O)c2ccc(C)c([N+](=O)[O-])c2)cc1	-4	-10	12	i	-4	-8	2	-2
Cc1ccc(NC(=O)CN2C(=O)N/C(=C\c3cccnc3)C2=O)cc1	.	-16	16	.	4	3	7	-1
O=[N+]([O-])c1cccc(S(=O)(=O)c2ccc(NCCOCCO)c([N+](=O)[O-])c2)c1	-8	0	2	i	4	1	6	2
O=c1cc(CN2CCN(Cc3ccccc3)CC2)c2cc(Cl)ccc2o1	8	.	7	i	7	7	0	-3
C=CCn1c(=O)c(C(=O)Nc2ccc(C)cn2)c(O)c2ccccc21	6	-8	8	i	-8	-12	-16	-4
CCC1=C(OC(=O)N(CC)CC)N2C(=O)OC(=NCCc3c[nH]c4ccccc34)[C@]2(Cc2ccccc2)[C@H]2C1=CC[C@H]1C(=O)N(CC(=O)OC)C(=O)[C@H]12	13	12	7	i	0	-6	.	-2
COc1ccc(N(C(=O)COc2ccc(C)cc2)S(=O)(=O)c2ccc(C)cc2)cc1	.	-1	4	i	0	-2	.	-6
Cc1ccc(C)c(-n2nnnc2SCC(=O)NNC(=O)c2ccco2)c1	.	0	-2	i	0	3	12	6
CCCN1CCN(C(=O)C2CCN(c3ncnc4c3nc3n4CCCCC3)CC2)CC1	1	-5	-2	i	-1	-3	-8	-9
COC(=O)C1CCN(C(=O)COC(=O)/C=C/c2ccc(O)c(OC)c2)CC1	3	-18	.	.	3	0	.	.
COCC(C)N=CC1=C(O)CC(C)(C)CC1=O (stereo not given)	-8	0	-2	i	1	0	-13	-6
CCCCCCCNC(=O)C1(CC2CC(c3ccccc3)=NO2)CCNCC1 (stereo not given)	2	21	.	.	-3	-2	19	.
Cc1cc(C(=O)NC(=S)Nc2cccc(NC(=O)C(C)C)c2)ccc1[N+](=O)[O-]	-13	2	6	i	-3	-9	14	-3
